Arbovirus anti: antivirals against arbovirus infection, primary screen, cell-based, full library, 10K replicate subset. arbovirus infection cell-based antiviral screen. inhibition, % at 10 µM. hit rate 0.37% among 200,000. AID 1251, 2008;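 active = inhibition from about 30%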;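 also: bluetongue infection of BSR cells; cell survival read as ATP light after 72 h; 0% = infected wells without compound and 100% = uninfected wells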
YopH PTP inh: YopH tyrosine phosphatase inhibitors, primary screen, biochemical, fluorescence Ex485/Em525 | YopH tyrosine phosphatase [Yersinia enterocolitica] | inhibition, %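 (about 10 µM by stock and volumes)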 | hit rate 0.16% among 140,000;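 active = inhibition of 50% or more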;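 also: controls were vehicle for no effect and minimum signal wells for full effect; inactives centre near -20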
Mtb H37Rv: M. tuberculosis H37Rv growth inhibitors, H37Rv strain (AID 1626). inhibition, % at 10 µM, or IC50 in µM where a hit was titrated. M. tuberculosis H37Rv growth inhibition; higher % means a stronger effect. hit rate 0.95% among 220,000;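 active = confirmed in a dose series; inconclusive = inhibition above 80% but not taken into the dose series; inactive = below 80% or under 30% at every dose of the series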;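 also: bacteria incubated seven days before Alamar blue readout; 0% = bacteria only wells and 100% = bacteria with antibiotic wells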
RecA intein inh: Mtb RecA intein splicing inhibitors, primary screen, biochemical, fluorescence, HTS; Protein RecA (Mycobacterium tuberculosis (strain ATCC 25618 / H37Rv)), P9WHJ3; cell-free RecA intein splicing; inhibition, %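 (about 9 µM by stock and volumes)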; hit rate 0.75% among 290,000; in the data active = inhibition above about 30%; inconclusive = no clear call, values can overlap the other calls;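 also: 0% = vehicle wells and 100% = reference inhibitor control wells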
Target sequence (P9WHJ3 whole entry, looked up): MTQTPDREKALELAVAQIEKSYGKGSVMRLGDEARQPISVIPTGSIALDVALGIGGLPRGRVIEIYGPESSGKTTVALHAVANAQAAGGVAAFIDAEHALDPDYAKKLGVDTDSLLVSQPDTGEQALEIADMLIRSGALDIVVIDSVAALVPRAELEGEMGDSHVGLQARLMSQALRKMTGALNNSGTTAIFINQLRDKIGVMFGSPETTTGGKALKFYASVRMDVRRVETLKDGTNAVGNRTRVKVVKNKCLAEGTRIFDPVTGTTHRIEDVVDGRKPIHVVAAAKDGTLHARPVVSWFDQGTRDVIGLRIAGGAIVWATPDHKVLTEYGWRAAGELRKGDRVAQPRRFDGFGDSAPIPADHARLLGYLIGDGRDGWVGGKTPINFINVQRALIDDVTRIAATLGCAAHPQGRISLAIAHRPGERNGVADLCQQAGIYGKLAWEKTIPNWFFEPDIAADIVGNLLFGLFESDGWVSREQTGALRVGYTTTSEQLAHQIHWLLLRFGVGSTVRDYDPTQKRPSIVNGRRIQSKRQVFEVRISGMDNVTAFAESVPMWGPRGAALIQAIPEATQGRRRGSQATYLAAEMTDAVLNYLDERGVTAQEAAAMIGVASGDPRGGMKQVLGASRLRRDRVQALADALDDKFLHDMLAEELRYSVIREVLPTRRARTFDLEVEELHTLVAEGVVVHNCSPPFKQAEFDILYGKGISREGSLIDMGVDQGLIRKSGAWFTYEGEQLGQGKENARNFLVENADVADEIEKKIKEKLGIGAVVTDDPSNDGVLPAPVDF
Mtb betalactam: beta-lactam sensitization of Mtb H37Rv, H37Rv. M. tuberculosis H37Rv growth with meropenem, percent inhibition; hits of this screen are not shown here. inhibition, % at 25 µM. hit rate 0.27% among 330,000. AID 434955, 2010;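 active = about 74% or more and at least 40 points above the plate without the antibiotic, then above 30% in a dose series; inconclusive = first-round hits that could not be retested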;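 also: growth measured after seven days incubation then overnight dye step; 0% = bacteria only wells and 100% = bacteria with antibiotic; twin plates without the antibiotic show which effects depend on it; some results filed as inactive read as strong as hits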
Arbovirus anti repeat: second read-out of Arbovirus anti, no call of its own (marks repeat the call); inhibition, %; measured here: 10K subset replicate screen; many hits read low in the repeat;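 first of two repeat runs on a subset; 0% = infected and 100% = uninfected wells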
* hit, by the source's call; ? = inconclusive; · = no result given; & = joins results of further samples; ! = a repeat was not active. A portion of the library; rates above refer to the full screens.

SMILES	Arbovirus anti	YopH PTP inh	Mtb H37Rv	RecA intein inh	Mtb betalactam	others
COc1cc(/C=C/C(=O)NCc2ccccn2)cc(OC)c1OC	-3.6	-39.9	-3.1%	-0.3	65.4
Cc1cccc(OCC(=O)N2CCc3ccccc3C2)c1	·	·	·	0.7	3.2
Cc1[nH]n(-c2cccc(Cl)c2)c(=O)c1C=NC12CN3CN(CN(C3)C1)C2	4.6	-34.5	-4.6%	-0.6	0.9
COc1cccc(OC)c1C(=O)Nc1ccc(CN2CCCCC2)cc1	5.1	-34.2	-2.5%	-2.1	2.9
CC(=O)N(C(C)=O)c1ccc2nc(C)[nH]c(=O)c2c1	3.1	-28.5	2.5%	-2.8	3.5
COc1ccccc1/C=C/C=N/n1c(C)nnc1C	1.4	·	-4.3%	2.3	2.1
COc1ccc(OC)c(NC(=O)CSc2nnc(C)n2Cc2ccccc2)c1	2.6	-16.5	-9.9%	-0.2	0.4
Cc1ccc(-c2cc(=O)c3ccc(F)cc3[nH]2)cc1	-1.3	·	-14.1%	-1.7	-9.9
Fc1ccc(CNCCc2ccccc2F)cc1	-5.8	9.0	3.9%	1.7	-8.4
CCC(=O)N(CC)c1nc(-c2cc(OC)ccc2OC)cs1	-3.6	-34.7	-6.4%	2.2	4.9
CCN(C(=O)CCNC(=O)Cn1cnc2ccccc2c1=O)c1cccc(Cl)c1	·	·	·	0.0	6.4
Cc1sc(N/N=C/c2cccs2)nc1-c1ccccc1	23.8	-1.5	-8.9%	-5.6	2.3
Cc1cc(C(=O)NC(C)C)on1	1.9	-53.6	-3.7%	0.7	-12.8
O=C(N=Nc1c(O)n(C2OC(=O)c3ccccc32)c2ccccc12)c1ccc(O)cc1 (stereo not drawn)	-6.5	-22.5	·	-0.9	11.4
CCc1cc2c(SCC(=O)NC(=O)c3cccn3C)ncnc2s1	6.9	·	-4.3%	4.4	-0.2
Cc1nc([N+](=O)[O-])c(Br)n1CC(=O)c1ccccc1	5.3	-24.9	37.0%	1.0	97.5
Cc1ccc(-n2nc(C)cc2N)c(C)c1	7.1	·	-8.6%	2.4	-3.2
COc1ccc(NC(=O)CN(C)C(=O)c2c(C)nn(Cc3ccccc3)c2C)cc1	·	·	·	0.0	-10.6
O=C(COC(=O)CNC(=O)c1ccc(Br)o1)Nc1ccc2c(c1)OCCO2	9.0	-6.8	-3.0%	-0.3	-9.5
CC1(C)CC(=O)C2=C(C1)Nc1ccccc1NC2c1nc2ccccc2[nH]1 (stereo not drawn)	4.7	-19.9	-2.0%	0.6	-0.4	Arbovirus anti repeat=-0.8

Nothing new here: three of the compounds above.
SMILES	Arbovirus anti	YopH PTP inh	Mtb H37Rv	RecA intein inh	Mtb betalactam	others
Fc1ccc(CNCCc2ccccc2F)cc1	-5.8	9.0	3.9%	1.7	-8.4
CCC(=O)N(CC)c1nc(-c2cc(OC)ccc2OC)cs1	-3.6	-34.7	-6.4%	2.2	4.9
CCN(C(=O)CCNC(=O)Cn1cnc2ccccc2c1=O)c1cccc(Cl)c1	·	·	·	0.0	6.4

Reprinted at random: 5 records from the list, in no set order.
SMILES	Arbovirus anti	YopH PTP inh	Mtb H37Rv	RecA intein inh	Mtb betalactam	others
CCN(C(=O)CCNC(=O)Cn1cnc2ccccc2c1=O)c1cccc(Cl)c1	·	·	·	0.0	6.4
Cc1[nH]n(-c2cccc(Cl)c2)c(=O)c1C=NC12CN3CN(CN(C3)C1)C2	4.6	-34.5	-4.6%	-0.6	0.9
CC1(C)CC(=O)C2=C(C1)Nc1ccccc1NC2c1nc2ccccc2[nH]1 (stereo not drawn)	4.7	-19.9	-2.0%	0.6	-0.4	Arbovirus anti repeat=-0.8
CCC(=O)N(CC)c1nc(-c2cc(OC)ccc2OC)cs1	-3.6	-34.7	-6.4%	2.2	4.9
Cc1nc([N+](=O)[O-])c(Br)n1CC(=O)c1ccccc1	5.3	-24.9	37.0%	1.0	97.5

Going on with the list.
SMILES	Arbovirus anti	YopH PTP inh	Mtb H37Rv	RecA intein inh	Mtb betalactam	others
O=C1N/C(=C\c2ccsc2)C(=O)N1Cc1ccc(F)cc1	-7.1	-48.4	-2.7%	3.1	1.0
O=C(Nc1cccc(NC(=O)c2ccccc2)n1)c1ccccc1	·	·	·	2.9	-0.6
COc1cccc(CNC(=O)Cc2ccc(-n3c(=O)[nH]c4ccccc4c3=O)cc2)c1	-7.3	-24.4	-6.1%	-5.5	-1.8
CCOc1ccc(CNC(=O)C(CC)n2nc(C)n3c(cc4occc43)c2=O)cc1OC (stereo not drawn)	4.1	-8.1	0.0%	0.2	-18.9
COCCn1c(=O)[nH]c2cc(C(=O)N3CCN(c4ccccc4OC)CC3)ccc2c1=O	-3.0	-133.2	-11.4%	0.2	-4.1	Arbovirus anti repeat=0.1
CCOC(=O)CC(NC(=O)c1cc2cccc(OC)c2oc1=O)c1ccc(OC)cc1 (stereo not drawn)	·	·	·	-2.2	0.1
Cc1ccc(CNC(=O)Nc2ccc(C)cc2)cc1	-4.9	·	6.7%	-3.3	10.8
Cc1ccc(-c2nn3c(C)nnc3c3ccccc23)cc1S(=O)(=O)NC(C)c1ccccc1 (stereo not drawn)	-33.2	-18.0	1.1%	-1.8	-2.0
C=CCn1c(SCC(=O)N2CCOCC2)nc2scc(-c3ccco3)c2c1=O	-4.5	-30.1	-3.2%	0.2	-9.9
CCC(C)NC(=O)CN(C1CCCCC1)S(=O)(=O)c1ccc(F)cc1 (stereo not drawn)	·	·	·	-1.8	-0.4
Cc1ccc(C2=NN(C(=O)c3ccccc3F)C(c3ccccc3F)C2)cc1 (stereo not drawn)	·	·	·	20.4	3.6
COc1ccccc1CNC(=O)CC(C)c1ccccc1 (stereo not drawn)	·	·	·	-2.0	-1.3
Cc1ccc(CNC(=O)CCSCCC(=O)NCc2ccc(C)cc2)cc1	2.6	7.9	-4.0%	-2.2	-4.2
CCN1C(=O)[C@H]2[C@@H](c3ccc(C)cc3)N3C(=O)N(c4ccccc4)C(=O)[C@@]3(C)[C@H]2C1=O	·	·	·	-2.8	-0.6
COC(=O)c1cccc(NC(=S)NCc2ccc(F)cc2)c1	-4.4	·	-7.9%	-1.2	-0.1
COc1ccccc1OCCn1c(=S)[nH]c2ccccc21	·	·	·	0.6	0.4
O=C(c1ccc(CS(=O)(=O)c2ccc(Br)cc2)o1)N1CCN(c2ccc(F)cc2)CC1	·	·	·	-0.7	4.7
N#C/C(=C\c1ccccc1)C(=O)Nc1nncs1	·	·	3.5%	2.0	-3.4
Cc1ccc(S(=O)(=O)N2CN(Cc3ccco3)c3nc4ccccc4nc32)cc1C	14.4	-19.2	-3.8%	9.9	-8.2
COc1ccc(Oc2c(Cl)cnn(-c3ccc(C)cc3)c2=O)cc1	1.7	-20.2	3.5%	7.3	2.7
COc1ccccc1NC(=S)NC(NC(=O)C(C)C)C(Cl)(Cl)Cl (stereo not drawn)	-6.2	·	-8.8%	-2.6	1.9
O=c1c(Cl)c(Cl)cnn1-c1ccccc1	-42.1	-32.4	76.3%	21.6	·
Cc1cnc(C)c(N2CCC(C(=O)NCc3ccco3)CC2)n1	-0.6	-16.7	-13.1%	2.9	0.8
O=C(Cn1cc(C(F)(F)F)cc(Cl)c1=O)Nc1cc(Cl)cc(Cl)c1	-3.8	·	6.4%	-0.7	6.6
CC(=O)Nc1cccc(C(=O)OCc2ccccc2)c1	5.3	-1.3	5.4%	3.4	-8.0
O=C1C2C3c4ccccc4C(c4ccccc43)C2C(=O)N1Cc1ccccn1 (stereo not drawn)	10.9	·	·	3.3	0.5
CC(C)(C)NC(=S)NCc1ccncc1	5.7	·	5.1%	2.2	-3.7
COc1cccc(C(=O)NCCS(=O)(=O)N(C)Cc2ccccc2)c1	·	·	·	2.5	-3.5
CCOC(=O)CCCNC(=O)COC(=O)c1cccc(C)c1O	3.3	-28.4	5.5%	-0.2	-0.8
Cc1nc2c(n1O)CCC/C2=N\O	-0.2	-39.6	-5.8%	0.0	-13.4
CCCc1c(OCCCCc2nn[nH]n2)ccc(C(C)=O)c1O	34.8*!	-64.5	5.9%&4.0%	7.0	2.9
COc1ccccc1CNC(=O)c1c(-c2ccccc2Cl)noc1C	·	·	·	3.0	0.2
Cc1nc(N)sc1C(=O)N/N=C/c1cccnc1	22.4	·	-2.7%	-2.7	-2.8
CCOP(=O)(OCC)C(Nc1cccc([N+](=O)[O-])c1)c1ccc(N(C)C)cc1 (stereo not drawn)	·	·	2.5%	1.4	-3.1
O=C(O)c1ccc(-n2nnnc2Oc2cccc3cccnc23)cc1	1.3	15.3	-5.5%	-1.8	17.5
COC(=O)C1=C(C)N(c2ccc(Cl)cc2)/C(=C/c2ccc(O)cc2)C1=O	-3.3	·	-5.6%	-2.9	5.1
CCN(c1ccc(OC)cc1)S(=O)(=O)N1CCCC(C(=O)NCc2ccccc2Br)C1 (stereo not drawn)	·	·	·	-0.2	6.0
O=C(CSc1nnc(-c2ccccc2Cl)o1)N1CCCCC1	5.1	-15.1	?	0.1	98.8	Arbovirus anti repeat=2.4
Nc1ccc(C(=O)N/N=C\c2cc(N=Nc3cccc4ccccc34)ccc2O)cc1	-35.9	-16.8	-2.1%	-4.7	5.6
O=C(c1ccc(Cl)cc1)N1CCC(c2nc(-c3cccs3)no2)CC1	16.4	-27.5	9.7%	5.4	4.2
CN1CCN(C2=CC3=CC(=C(C#N)C#N)CCC3CC2)CC1 (stereo not drawn)	4.7	·	-4.3%	·	·
O=C(O)CCSc1nnc(COc2ccc(Cl)cc2)n1-c1ccccc1	·	·	·	0.5	-2.8
COc1ccc(OCC(O)CN2C(=O)c3ccccc3C2=O)cc1 (stereo not drawn)	·	·	·	-1.3	-3.4
CN(CC(=O)Nc1ccccc1Cl)C(=O)c1cccc(-n2cccc2)c1	·	·	·	3.0	-4.6
CC1CCCCN1Cc1ccc(N(C)C)cc1 (stereo not drawn)	-5.3	-28.2	3.6%	-0.4	1.7
Cc1ccccc1NC(=O)Cc1nc(COC(=O)c2cccc(C)c2O)cs1	·	·	·	3.0	-10.9
COc1ccc(CCN(Cc2nc3ccccc3c(=O)[nH]2)C(=O)c2ccco2)cc1OC	-6.6	-37.6	-7.0%	1.4	-8.5
Cc1cccc(OCCCC(=O)Nc2ccccc2C(F)(F)F)c1	-1.0	-29.1	6.7%	0.4	-10.0
COc1cccc(COC(=O)C2CCN(C(=O)c3ccccc3C)CC2)c1OC	·	·	·	1.0	1.8
Cc1cc(C)c(C#N)c(SCc2[nH]nc3c2C(c2ccccc2)C(C#N)=C(N)O3)n1 (stereo not drawn)	3.5	-20.9	2.8%	22.6	-4.8
CCCN1CCN(C(=O)c2oc3ccccc3c2NC(=O)C2CC2)CC1	·	·	·	-2.3	5.3
Cc1ccc(NC(=O)CNCc2ccccc2)c(Br)c1	4.1	·	-0.3%	-1.0	4.5
O=S(=O)(Nc1cccc2ccccc12)N1CCCC1	4.7	-29.7	3.1%	2.6	4.8
Cc1cc(C(=O)NCc2cc(C(=O)O)oc2C)c(C)o1	0.3	-5.5	1.3%	3.7	-6.8
COC(=O)C1=C(C)N(c2ccc(F)cc2)C(=O)C1	3.3	-20.9	-1.0%	0.4	5.0	Arbovirus anti repeat=7.3
COc1ccc(N2CCN(Cc3csc(C)c3-c3ccc(C)cc3)CC2)cc1	·	·	·	18.5	62.3
CCN(CC)C(=O)COc1coc(CN2CCN(c3cccc(Cl)c3)CC2)cc1=O	·	·	·	-3.3	-2.1
COc1ccc(CCNC(=O)CN2c3cccc4cccc(c34)S2(=O)=O)cc1OC	·	·	·	0.3	9.3
CCOc1ccccc1CNC(=O)Cn1ccc2cc(S(=O)(=O)N3CCCC3)ccc21	·	·	·	-0.2	3.3
CSc1ccc(C(c2c(O)c3ccccc3oc2=O)c2c(C)n(C)n(-c3ccccc3)c2=O)cc1 (stereo not drawn)	0.6	·	5.6%	3.7	-7.5

Next results
SMILES	Arbovirus anti	YopH PTP inh	Mtb H37Rv	RecA intein inh	Mtb betalactam	others
CC[C@@H](C)[C@H](NC(=O)Cc1c(C)c2c(cc(C)c3c(C)c(C)oc32)oc1=O)C(=O)O	·	·	·	-30.0	4.0
CSc1cccc(NC(=S)NN(C)C)c1	·	·	-10.3%	0.7	97.9
N#CC1=C(S)N(c2ccc(F)cc2)C(c2cccs2)NC1=O (stereo not drawn)	-2.9	-16.9	-4.8%	·	·
Fc1c(F)c(F)c(N=Cc2ccc3ncccc3c2)c(F)c1F	-8.7	-25.8	2.3%	-1.7	-0.2
CC12CCC(=O)N1C(C(=O)N1CCN(S(=O)(=O)c3cccc(C(F)(F)F)c3)CC1)CS2 (stereo not drawn)	·	·	·	-0.9	-8.5
CC(=O)c1ccc(Nc2c3c(c(C#N)c4nc5ccccc5n24)CCC3)cc1	2.3	-12.7	0.2%	2.8	-6.2
